NPYLR7 agonist: agonists of mosquito NPYLR7 receptor, primary screen, cell-based, Aedes aegypti, calcium fluorescence, mosquito biting behavior. Aedes aegypti neuropeptide Y-like receptor 7 (NPYLR7). HEK293T NPYLR7/Galpha15, GCaMP6s calcium fluorescence. AID 1259423, 2018. 270,000 compounds, 0.15% hits. activation, % at 10 µM; in the data active = activation above about 40%;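 note: 0% = vehicle and 100% = reference agonist at the receptor; some compounds past the cut are filed as inactive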
NPYLR7 agonist max-min: second read-out of NPYLR7 agonist, no call of its own (marks repeat the call); activation, %; measured here: Max-Min RFU normalised activation; some inactives read as strong as hits;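 span of the calcium signal over five minutes; 0% = vehicle and 100% = native peptide agonist; compound fluorescence can raise it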
An asterisk follows results filed as active. These rows are one share of the data. The share of hits here may be higher or lower than overall.

SMILES | NPYLR7 agonist | NPYLR7 agonist max-min
c1ccc(-c2nc(SCC3CCOCO3)oc2-c2ccccc2)cc1 (stereo not given) | 3 | 0
CC[C@H]1CN(C(=O)c2nc3nc(C)cc(C)n3n2)CC[C@@]1(C)O | -4 | -8
CCOC(=O)C1=C(C)NC(C)=C(C(=O)OCC)C1c1ccc(N(CC)CC)cc1 | -8 | -15
Cn1cnc(S(=O)(=O)N2CCSC3(CCCCC3)C2)c1 | -5 | -5
CC(C)(CCl)C(=O)Nc1ccc2[nH]cc(CCN3CCN(c4cccc(C(F)(F)F)c4)CC3)c2c1 | -7 | -10
COc1ccc(CN(Cc2ccco2)C(=O)C23CC4CC(CC(C4)C2)C3)cc1OS(=O)(=O)c1ccc(F)cc1 | 17 | 15
CCn1c(=NC(=O)CN2C(=O)CCC2=O)sc2c(C)ccc(OC)c21 | -1 | -1
Cc1cccnc1NCCNS(=O)(=O)NCc1ccccc1 | 0 | 2
CCN(CC)C(=O)c1cc(NC(=O)Nc2ccccc2C)ccc1N1CCCC1 | -8 | -1
CCCSc1nc(NCCOC)c2cnn(CCNC(=O)Cc3ccc(F)cc3)c2n1 | 10 | 7
Cc1ccc(C(=O)NC(C)(C#N)CCc2ccccc2)cn1 (stereo not given) | 2 | -1
Cc1nn(-c2ccc(F)cc2)c(C)c1C(=O)N1CCn2c(C(N)=O)cnc2C1 | 3 | 20
CC(=O)c1c(C)oc2ccc(N(C(C)=O)S(=O)(=O)c3ccc(C)cc3C)cc12 | 3 | 1
COc1ccc(-c2ccc(=O)n(Cc3cccc4ccccc34)n2)cc1OC | 9 | 3
Cc1nnc2n1CCN(C(=O)C1CCCCN1CC(C)C)C2 (stereo not given) | 0 | -1
C=CCN(C(=O)c1cc(COc2ccc3c(c2)CCCC3)on1)C1CCS(=O)(=O)C1 (stereo not given) | 6 | 6
CC(C(=O)N(C)C)N(C)Cc1ccnn1-c1ccccc1 (stereo not given) | 22 | 14
CC(c1ccccc1)N(Cc1cccc(Oc2ccccc2)c1)Cc1nc(C(=O)NCC2CCCO2)co1 (stereo not given) | 15 | 20
CN1C(=O)N(CCc2ccccc2)C(=O)C12CCN(Cc1ccccc1-c1ccco1)CC2 | -10 | -13
Cc1ccn2c(=O)c(NC(=O)c3ccc(C)c(C)c3)c(C)nc2c1 | -7 | -6
CC(C)N1CC(C(=O)NCc2ccccc2Cl)CC1=O (stereo not given) | 1 | -2
O=S(=O)(c1ccc(-c2ccccn2)s1)N1CCn2cncc2C1 | 0 | -9
CC(C)CCC1=NC2(CCN(C(=O)Cn3cccn3)CC2)C(=O)N1 | -8 | -10
O=C(NCc1ccncc1)c1csc(COc2cc(Cl)ccc2Cl)n1 | 10 | 6
CC#CC(=O)N1CCC(Oc2ccc(C(=O)NCCc3ccccc3)cc2)CC1 | 13 | 2
CNc1nc2cnc(Nc3ccc(Oc4ccccc4)cc3)cc2n1-c1ccccc1 | 11 | 0
COc1cccc(C(O)CN2CCCC2c2ccsc2)c1 (stereo not given) | 6 | 3
Cc1ccc(Nc2cc(C(=O)O)c(N)c3c2C(=O)c2ccccc2C3=O)cc1 | -16 | -22
CCn1nc(C)c(CNC(=O)Cn2cnc3c([nH]c4ccc(C)cc43)c2=O)c1C | 2 | 0
CC(C)OCC(O)CN(Cc1ccc2c(c1)OCO2)Cc1c(-c2ccccc2)noc1N1CCCC1 (stereo not given) | 7 | 6
O=S(=O)(C=Cc1ccc(Br)cc1)c1ccc(Cl)cc1 | 0 | -1
O=C(CN1C(=O)c2ccccc2C1=O)NCC(=O)OCC(=O)c1cccc([N+](=O)[O-])c1 | 0 | 2
COc1cccc(CC2CN(C(=O)CCn3nc(C)cc3C)CCO2)c1 (stereo not given) | 6 | 1
CC(C)(CNC(=O)CC1=CCCCC1)S(C)(=O)=O | 6 | 3
CCC(C)N(CC(=O)N1CCc2sccc2C1c1ccc(F)cc1)S(=O)(=O)c1cccc(C(F)(F)F)c1 (stereo not given) | -4 | 2
CCCc1[nH]n(-c2ccc(F)cc2)c(=O)c1C1=C([n+]2cccc(C)c2)C(=O)N(Cc2ccccc2)C1=O | -2 | 7
Cc1cc(C)c(C#N)c(SCC(=O)c2ccc([N+](=O)[O-])cc2)n1 | -2 | -5
COc1ccccc1OC1CCN(Cc2nc(C3(c4ccc(C)cc4)CCCC3)no2)CC1 | 12 | 5
O=C(COC1CCCC1)Nc1ccc2nc(-c3cccc(F)c3)[nH]c2c1 | -2 | -4
COc1ccc(S(=O)(=O)N2CCCc3cccc(O)c32)cc1 | 7 | 2
CC(C)OCCCNC(=O)c1cc(F)ccc1N1CCN(C)CC1 | 4 | 4
O=C(CSc1ccccc1)NCc1cccc(-c2ncc(-c3ccc(F)cc3)[nH]2)c1 | 8 | 6
O=C(NCCn1ncc2c(=O)n(Cc3cccc(Cl)c3)cnc21)c1cccs1 | -2 | -5
Cc1ccc(S(=O)(=O)c2nnn3c2nc(N(C)Cc2ccccc2)c2sccc23)cc1 | 4 | 12
CC1CCN(CC(O)Cn2ncnc2-c2ccccc2Cl)CC1 (stereo not given) | 9 | 6
CC1(C)CC(=O)c2cc3c(N)c(C(=O)Nc4ccc([N+](=O)[O-])cc4)sc3nc2C1 | 2 | -2
COCCN(Cc1ccc(C)cc1)CC(O)COCC(C)C (stereo not given) | 18 | 15
OCCn1c(CSc2nnc(C3CC3)n2C2CC2)nc2ccc(Cl)cc21 | 2 | -2
O=C1NC2(CCN(C(=O)c3cccc([N+](=O)[O-])c3)CC2)Nc2ccc(Cl)cc21 | 0 | 8
O=C(Cc1csc2nc3sc4c(c3c(=O)n12)CCC4)N(CCO)CCO | 5 | 2
Carrying on:
SMILES | NPYLR7 agonist | NPYLR7 agonist max-min
CC(C)c1ccc(NC(=O)N2CCN(C(C(=O)NCc3ccccn3)C3CCCC3)CC2)cc1 (stereo not given) | 0 | 6
COC(=O)CC(C)(C)NCc1nc(C)cs1 | 1 | -6
COc1ccc(-c2nn(CN(C)C3CCCC3)c(=S)o2)c(OC)c1 | 9 | 5
CC(C)C(=O)N1CCC1(C)C(=O)Nc1nc2ccccc2[nH]1 (stereo not given) | -4 | -3
CCc1nc2n(n1)C(=O)C(C(c1ccccc1Cl)N1CCC(C(N)=O)CC1)S2 (stereo not given) | -5 | 8
COc1ccc2c(c1)cc(C(O)c1cccnc1)n2S(=O)(=O)c1ccccc1 (stereo not given) | 4 | 0
CC(=O)Nc1ccc(NC(=O)CSc2nc(N)c(NC(=O)c3ccccc3F)c(=O)[nH]2)cc1 | -9 | -10
COCCN(Cc1c(-c2ccccc2)noc1N1CCCC1)CC(O)c1ccccc1 (stereo not given) | -5 | 8
O=c1c2cnc3ncnn3c2ccn1Nc1ccc(F)cc1 | 3 | 8
CC(CC(=O)Nc1ccc(=O)n(C)c1)c1ccc(F)cc1 (stereo not given) | 11 | 9
O=c1[nH]c2ccc(N=Cc3cc(Br)ccc3O)cc2[nH]1 | -3 | -5
CC(CCc1ccc2c(c1)OCO2)=NNc1c([N+](=O)[O-])cc(C(F)(F)F)cc1[N+](=O)[O-] | -5 | -6
O=C(CCC1CCN(CC2CC=CCC2)CC1)Nc1ccccc1Cl (stereo not given) | 17 | 6
Cc1cc(C(=O)N(CCCN(C)C)c2nc3c(F)cccc3s2)nn1C | 1 | -2
CCNC(=O)C1(C)CCCN(Cc2cc3ccccc3o2)C1 (stereo not given) | 0 | -1
COCc1nc(C)c(CNC(=O)C(C)n2cnc3ccccc32)s1 (stereo not given) | 19 | 9
CCOC(=O)[C@@H]1C[C@H]2CN(CCOC)C(=O)c3cccc(c32)N1C(=O)Cc1ccccc1 | 1 | 8
O=C(NCCC1=CCCCC1)C1CCCN(C2CCN(C(=O)C3CC3)CC2)C1 (stereo not given) | -2 | -6
Cc1noc(C)c1CSC(C(N)=O)c1ccccc1 (stereo not given) | 6 | 2
CCCc1ccc2oc(C(=O)N3CCCC(C(=O)c4cccnc4)C3)c(C)c2c1 (stereo not given) | 9 | 5
COc1ccc(C(=O)NC2CCN(c3ccccc3C(=O)NCc3ccc(F)cc3)CC2)cc1OC | 17 | 10
CN1C(=O)N(C)C(=O)C(C2CCC3OCC2O3)(C2CCC3OCC2O3)C1=O (stereo not given) | -1 | -7
O=C(COc1c(Br)cc(Br)c2cccnc12)N1CCCCC1 | -2 | -3
O=C1CN(C(=O)c2nn(CCCc3ccccc3)c3c2CN(Cc2cccnc2)CC3)CCN1 | 16 | 0
Cc1cc([N+](=O)[O-])nn1CC(=O)NCC(C)C | -4 | -9
COc1ccc(C(=O)N2CCC(CCc3ccc(-c4ccccc4)cc3)CC2)cc1OC | 3 | 0
COC(=O)[C@@H]1C[C@@H](NC(=O)c2cc(N)ccn2)CN1C | 12 | -3
Cn1nc([N+](=O)[O-])c(C(C#N)c2nc3ccccc3n2C)c(Cl)c1=O (stereo not given) | 1 | 0
Cc1ccc(S(=O)(=O)NC(=O)C2(C)CCN2C(=O)Cc2cc(F)ccc2F)nc1 (stereo not given) | 0 | 1
CCS(=O)(=O)CC(C)N(C)C(=O)CCc1ccco1 (stereo not given) | 8 | 4
Cc1nc2ccccc2nc1N1CCN(C(=O)C(F)(F)C(F)(F)C(F)(F)F)CC1 | 29 | 27
OCCNc1nc(NN2CCOCC2)nc2c1cnn2-c1ccc(Cl)cc1 | 2 | 0
CCc1nc2c(OCCOC)cccn2c1N(C)C(=O)c1ccc(C)cc1 | -17 | 0
COc1ccc(NC(=O)Nc2nnc(-c3ccccc3)s2)cc1 | 8 | 2
CCC(C)N(Cc1ccc(OC)c(OS(=O)(=O)c2ccc(F)cc2)c1)C(=O)Nc1c(C(C)C)cccc1C(C)C (stereo not given) | 18 | 29
CCCCCc1ccc(C(=O)N(CCCOC)CC(=O)N(Cc2ccccc2)Cc2cccn2Cc2ccc(F)cc2)cc1 | -3 | 6
C=C(C)[C@@H]1CC=C(CN2CCC(Oc3cc(OC)ccc3C(=O)NC3CC3)CC2)CC1 | 14 | 4
Cn1c(=O)c2c(ncn2CCN2CCC(c3c[nH]c4ccccc34)CC2)n(C)c1=O | -19 | -27
C=CCn1c(O)c(C=Nc2ccccc2)sc1=S | -3 | -7
CC(C)(C)C1c2[nH]c3ccccc3c2CCN1CCCC(F)(F)F (stereo not given) | 2 | -2
CN(C)S(=O)(=O)c1ccc(Cl)c(S(=O)(=O)N(C)C)c1 | 7 | 8
COC(=O)C(=C/C(C)=C/N(C)C)C(=O)OC | -10 | -21
CCCCc1ccc(C(=O)Nc2ccc(N3CCCC3)c(C(=O)NC(C)c3ccccc3)c2)cc1 (stereo not given) | -5 | -3
O=C(C(=O)N1CCC(C(=O)Nc2cccc(-c3ccco3)c2)CC1)c1ccccc1 | 5 | 0
O=C(O)C1COc2ccc(Br)cc21 (stereo not given) | 4 | 14
Cc1cc(C)n(C2CCS(=O)(=O)C2)n1 (stereo not given) | 5 | 12
O=C(Nc1cccc(-n2cccn2)c1)C1CCCN1C/C=C/c1ccco1 (stereo not given) | 6 | -3
Cc1nn(S(=O)(=O)c2ccc(Cl)cc2)c(C)c1S(=O)(=O)N1CCCC(C)C1 (stereo not given) | 3 | 3
Cc1sc2c(c1C)CN(C1CCC(C)CC1)CN2C(=O)c1ccco1 (stereo not given) | -2 | -3
CN(C)C(=O)c1nnc2n1CCN(C(=O)c1ccccc1Cl)C2 | 6 | 1
The results go on.
SMILES | NPYLR7 agonist | NPYLR7 agonist max-min
Cn1cnnc1Sc1ccc(-c2nccn2-c2ccc(F)cc2)o1 | -8 | -8
COc1ccc(-n2c(SCC(=O)Nc3cccc(C)c3)nc3c(c2=O)SCC3)cc1OC | -13 | -13
CC(C)n1cnnc1SCC(=O)NC1CCN(C(=O)c2ccccc2)CC1 | 7 | 6
CCCCn1c(N)c(N(CCC(C)C)C(=O)CSc2nnc(C)s2)c(=O)[nH]c1=O | 1 | 7
CC(C)C(CNC(=O)c1ccc(Cl)s1)N1CCOCC1 (stereo not given) | -1 | -2
CCN(CC)S(=O)(=O)c1ccc2c(c1)nc(SCc1nccc(OC)c1OC)n2CC1CCCO1 (stereo not given) | 19 | 11
Cn1c(C2CCN(S(C)(=O)=O)CC2)nn(Cc2cccc3ccccc23)c1=O | -5 | 2

Structural class, the entries above with an aryl thioether with sulfur outside any ring (11)
SMILES | NPYLR7 agonist | NPYLR7 agonist max-min
c1ccc(-c2nc(SCC3CCOCO3)oc2-c2ccccc2)cc1 (stereo not given) | 3 | 0
CCCSc1nc(NCCOC)c2cnn(CCNC(=O)Cc3ccc(F)cc3)c2n1 | 10 | 7
Cc1cc(C)c(C#N)c(SCC(=O)c2ccc([N+](=O)[O-])cc2)n1 | -2 | -5
O=C(CSc1ccccc1)NCc1cccc(-c2ncc(-c3ccc(F)cc3)[nH]2)c1 | 8 | 6
OCCn1c(CSc2nnc(C3CC3)n2C2CC2)nc2ccc(Cl)cc21 | 2 | -2
CC(=O)Nc1ccc(NC(=O)CSc2nc(N)c(NC(=O)c3ccccc3F)c(=O)[nH]2)cc1 | -9 | -10
Cn1cnnc1Sc1ccc(-c2nccn2-c2ccc(F)cc2)o1 | -8 | -8
COc1ccc(-n2c(SCC(=O)Nc3cccc(C)c3)nc3c(c2=O)SCC3)cc1OC | -13 | -13
CC(C)n1cnnc1SCC(=O)NC1CCN(C(=O)c2ccccc2)CC1 | 7 | 6
CCCCn1c(N)c(N(CCC(C)C)C(=O)CSc2nnc(C)s2)c(=O)[nH]c1=O | 1 | 7
CCN(CC)S(=O)(=O)c1ccc2c(c1)nc(SCc1nccc(OC)c1OC)n2CC1CCCO1 (stereo not given) | 19 | 11

From PubChem BioAssay
